# SARS PLP yeast: blocks SARS-CoV papain-like protease in a yeast assay. S. cerevisiae expressing SARS-CoV PLpro, growth rescue; control for the full effect not named in the record. Potency, µM (titrated, usually from 32.9 µM), for the others: at the top dose activity, positive = growth rescue. hit rate 0.19% among 330,000. AID 485353; active means well fitted rising curve with a large enough effect; inconclusive means small, poorly fitted or top-dose-only effect; inactive means no such curve, though single readings can be large or run the other way; further: 0% is about no effect; nearly all actives have a fitted effect of over 55% in size; growth read by luminescence after 48 h
# 2A StopGo: FMDV 2A StopGo reporter, luciferase signal; human cells with a luciferase reporter of 2A StopGo recoding; control for the full effect not named in the record; Potency, µM (doses to about 57.9 µM), for inactives: top-dose signal change, negative = less light; hit rate 1.2% among 410,000; active = well fitted falling curve with a large enough effect; inconclusive = small, poorly fitted or top-dose-only effect; inactive = no such curve, though single readings can be large or run the other way; tested in HEK293T cells; further: on the % scale 0 is the no-effect control and ±100 the full control effect; nearly all actives have a fitted effect of over 45% in size; luciferase light after 4 h
# RE007 growth inh: less growth of the S. pombe RE007 Vpr strain | Potency, µM (doses to about 92.2 µM), without a hit: at the highest dose activity change, negative = less growth | hit rate 0.21% among 360,000 | S. pombe RE007 Vpr strain, BacTiter-Glo ATP luminescence, 24 h; control for the full effect not named in the record | AID 651644; active = well fitted falling curve with a large enough effect; inconclusive = small, poorly fitted or top-dose-only effect; inactive = no such curve, though single readings can be large or run the other way;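 further: on the % scale 0 is the no-effect control and ±100 the full control effect; nearly all actives have a fitted effect of over 50% in size; the assay follows cell death caused by Vpr and the record does not say whether a fall means rescue or toxicity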
#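 Fission yeast RE007 carrying one integrated HIV-1 vpr copy, seeded at OD 0.01 in PMG+AL medium with 23 nL pinned compound. Grown 24 h at 30 degrees; viability read by BacTiter-Glo luminescence after 5 min.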
# * hit, by the source's call; ? = inconclusive; [ ] = another dose, or the depositor's remark. Potency means the concentration at half of the fitted maximal effect. Only part of the results is shown. The share of hits here may be higher or lower than overall.
1	CN(C)N1C(=O)CC(C)(c2ccc([N+](=O)[O-])cc2)C1=O (stereo not drawn)
2	O=C(CCS(=O)(=O)c1ccc(Cl)cc1)NC1CCCC1
3	CC(C)(C)N1C(=O)[C@H]2[C@@H](c3ccc(Br)cc3)N3C(=O)N(c4cccc(F)c4)C(=O)[C@@]3(C)[C@H]2C1=O
4	N#Cc1ccc(S(=O)(=O)N2CCC(C(=O)Nc3cccc(C(=O)NC4CC4)c3)CC2)cc1
5	COc1cc2cnc(C3=CCCCC3)cc2cc1OC
6	Cc1cc(N=Nc2ccccc2)c(NCC(O)C(O)C(O)CO)cc1C (stereo not drawn)
Assay by compound | 1 | 2 | 3 | 4 | 5 | 6
SARS PLP yeast | -2% | 1% | -2% | -2% | 0% | 2%
2A StopGo | -13% | -18% | -18% | -16% | 13% | -8%
RE007 growth inh | -9% | 15% | 3% | -5% | -18% | -2%

7	CN(C(=O)c1ccc(NC(=O)Cc2ccc(NC(=O)C3CCN(C(=O)CCc4ccccc4)CC3)cc2)cc1)C1CC1
8	Cc1ccc(S(=O)(=O)N2CCN(C(=O)CSc3n[nH]c(N)n3)CC2)c(C)c1
9	CC(C)N(C(=O)[C@H]1C[C@H](CC(=O)NCCCn2ccnc2)C(=O)N2CCc3c([nH]c4cc(CCC(=O)N(C)C)ccc34)[C@]12C)C(C)C
10	COc1ccc(-c2cc3onc(-c4c(Cl)cccc4Cl)c3c(=O)n2C)cc1
11	COC(=O)C1=C(c2ccc(OCc3ccccc3)cc2)C[C@@H]2CC[C@H]1N2C(=O)NC1CCN(Cc2ccccc2)CC1
12	COc1ccc(C(=O)c2c3ccc(C(F)(F)F)cc3[n+]([O-])n2CCCC(N)=O)cc1
Assay by compound | 7 | 8 | 9 | 10 | 11 | 12
SARS PLP yeast | -2% | -1% | -15% | -6% | 6% | 1%
2A StopGo | -13% | -26% | -4% | -15% | ? | 9%
RE007 growth inh | -19% | -1% | 12% | 4% | 11% | 3%

13	CCc1ccc2oc(-c3ccc(OC)cc3)cc(=Nc3c(C)n(C)n(-c4ccccc4)c3=O)c2c1
14	CCOc1cc(N2CCOCC2)c(OCC)cc1NC(=O)c1[nH]c(C)c(C(C)=O)c1C
15	NC(=O)c1ccc(NC(=O)CN2CCN(S(=O)(=O)c3ccc4c(c3)OCCO4)CC2)cc1
16	COc1ccc2ccc(O)c(CN3CCN(S(=O)(=O)c4cccc(C(F)(F)F)c4)CC3)c2c1
17	COc1cc(CCC(=O)NC2(C)CCS(=O)(=O)C2)cc(OC)c1OC (stereo not drawn)
18	O=C(COC(=O)c1ccc(Cl)nc1)NCCc1ccccc1
Assay by compound | 13 | 14 | 15 | 16 | 17 | 18
SARS PLP yeast | -9% | 3% | 4% | -1% | 2% | -1%
2A StopGo | -94% | -20% | -14% | ? | 2% | 2%
RE007 growth inh | -27% | -16% | -7% | -10% | 7% | -6%

19	Cc1ccccc1OCC(=O)OCC(=O)NCC1CCCCC1
20	CCN(CC(=O)Nc1c(F)cccc1F)C(=O)c1ccccn1
21	c1ccc(COc2cncc(-c3cccnc3)c2)cc1
22	C[C@@H]1CN([C@H](C)CO)C(=O)c2cc(NC(=O)Cc3ccccc3)ccc2O[C@H]1CN(C)Cc1ccc(Oc2ccccc2)cc1
23	CN(C)S(=O)(=O)c1cccc(NC(=O)CCc2nc3sc4c(c3c(=O)[nH]2)CCCC4)c1
24	C#CCOCCOCCOCCNc1nc(N2CCOCC2)nc(N2CCN(C(=O)CCCCCCCCCCNC(=O)[C@@H](CCC(=O)O)n3cc(CCCCCN)nn3)CC2)n1
Assay by compound | 19 | 20 | 21 | 22 | 23 | 24
SARS PLP yeast | -2% | 3% | 3% | -4% | -4% | -1%
2A StopGo | -11% | -9% | 26% | -23% | ? | -9%
RE007 growth inh | 7% | 5% | 12% | 2% | 18% | 8%

25	CCN1C(=O)[C@H]2[C@@H](c3ccc(-c4ccc5c(c4)OCO5)c(OC)c3)N[C@@](Cc3ccccc3)(C(=O)OC)[C@H]2C1=O
26	Cc1c(NC(=O)CSc2nc3ccccc3c(=O)n2C(C)C)c(=O)n(-c2ccccc2)n1C
27	O=C(CSc1nnc(C2CC2)n1C1CC1)c1ccc(F)cc1
28	O=S(=O)(c1ccccc1F)N1CCN(c2nc(-c3cccnc3)nc3ccccc23)CC1
29	CC(C)Sc1nnc(SCC(=O)N(C)C2CCS(=O)(=O)C2)s1 (stereo not drawn)
30	O=C(COC(=O)COc1ccccc1)Nc1ccc(Cl)cn1
Assay by compound | 25 | 26 | 27 | 28 | 29 | 30
SARS PLP yeast | -1% | 2% | 3% | -1% | -1% | -1%
2A StopGo | -17% | -14% | 50%[activator] | -16% | -13% | -20%
RE007 growth inh | -16% | -17% | -2% | -17% | -2% | -1%

31	CCOC(=O)C1=C(COC(=O)c2ccc([N+](=O)[O-])s2)NC(=O)NC1C (stereo not drawn)
32	CC(C)(C)[C@@H]1COC(=O)[C@@H](NC(=O)OCC2c3ccccc3-c3ccccc32)C/C=C\C[C@@H](CC(=O)NCCO)C(=O)N1
33	CC(=O)c1ccc(S(=O)(=O)NCC(=O)Nc2nc3ccccc3[nH]2)cc1
34	O=C(COC(=O)c1cc(=O)[nH]c2ccccc12)NCc1ccccc1
35	Cc1ccnc(SCc2cc(=O)c(OC(=O)c3ccccc3)co2)n1
36	NC(=O)c1ccc[n+](CC(=O)c2ccc(Br)cc2)c1
Assay by compound | 31 | 32 | 33 | 34 | 35 | 36
SARS PLP yeast | -12% | -1% | -9% | 2% | 9% | -5%
2A StopGo | -21% | -5% | -10% | 16% | 9% | 3%
RE007 growth inh | 3% | 1% | 2% | -5% | 1% | -4%

37	COc1ccc(S(=O)(=O)N2CCN(C(=O)C3COc4ccccc4O3)CC2)cc1 (stereo not drawn)
38	CC[C@H](C)C(N)c1cn(C(CCCN=C(N)N)C(=O)N2CCNCC2)nn1 (stereo partly drawn)
39	COc1ccc(NC(=O)c2ccc(NC(=O)CN3CCN(c4ccccc4)CC3)cc2)cc1
40	C[C@H](CO)N1C[C@H](C)[C@@H](CN(C)Cc2ccccc2)Oc2c(NC(=O)C3CC3)cccc2C1=O
41	Cc1cccc(C(=O)NCCC(=O)NCc2ccccc2F)c1
42	COc1cc(OC)cc(C(=O)NNC(=O)c2ccc(S(=O)(=O)N3CC(C)OC(C)C3)cc2)c1 (stereo not drawn)
Assay by compound | 37 | 38 | 39 | 40 | 41 | 42
SARS PLP yeast | -9% | -2% | 1% | 9% | 9% | 1%
2A StopGo | -29% | 0% | -16% | 41%[activator] | -2% | 0%
RE007 growth inh | -5% | 1% | -8% | -2% | 4% | -7%

43	Cc1ccccc1C(=O)NCC(=O)OCC(=O)NC(C)C1CC2CCC1C2 (stereo not drawn)
44	Cc1ccc(CONC(=O)c2ccc([N+](=O)[O-])cc2)cc1
45	O=C(COC(=O)c1ccc(O)cc1)NCCC1=CCCCC1
46	NS(=O)(=O)c1ccc(CCNC(=O)CSc2nc3ccccc3c(=O)n2CCC(=O)N2CCCCC2)cc1
47	O=C(CNC(=O)c1cccs1)N/N=C/c1ccco1
48	CSc1ncccc1C(=O)OCc1ccccc1Cl
Assay by compound | 43 | 44 | 45 | 46 | 47 | 48
SARS PLP yeast | -1% | 2% | 0% | -2% | 0% | -9%
2A StopGo | -14% | 42%[activator] | 0% | -6% | -4% | 56%[activator]
RE007 growth inh | 4% | 4% | 17% | -16% | 3% | -13%

# Four of the compounds above, field by field:
[45] O=C(COC(=O)c1ccc(O)cc1)NCCC1=CCCCC1
- SARS PLP yeast = 0%
- 2A StopGo = 0%
- RE007 growth inh = 17%

[46] NS(=O)(=O)c1ccc(CCNC(=O)CSc2nc3ccccc3c(=O)n2CCC(=O)N2CCCCC2)cc1
- SARS PLP yeast = -2%
- 2A StopGo = -6%
- RE007 growth inh = -16%

[47] O=C(CNC(=O)c1cccs1)N/N=C/c1ccco1
- SARS PLP yeast = 0%
- 2A StopGo = -4%
- RE007 growth inh = 3%

[48] CSc1ncccc1C(=O)OCc1ccccc1Cl
- SARS PLP yeast = -9%
- 2A StopGo = 56%[activator]
- RE007 growth inh = -13%

# Going on with the list:
49	Cc1nc2ccc(NC(=O)c3oc4ccc(F)cc4c3C)cc2s1
50	COc1ccc2nc3cccc(OC)c3nc2c1
51	Cc1ccc(C(=O)OCc2cc(=O)n3c(C)csc3n2)s1
52	CCN(C(=S)NCc1ccccc1)c1ccccc1
53	NS(=O)(=O)c1ccc(NC(=O)CSc2nc3ccccc3c(=O)n2Cc2ccncc2)cc1
54	COc1ccc(CCC(=O)N2CCN(S(=O)(=O)c3cccc(Cl)c3)CC2)cc1
Assay by compound | 49 | 50 | 51 | 52 | 53 | 54
SARS PLP yeast | 0% | -5% | -8% | 4% | 0% | -2%
2A StopGo | -6% | 54%[activator] | 21% | -2% | -16% | -17%
RE007 growth inh | -4% | ? | -11% | -2% | -6% | 1%

55	O=C1CCN(Cc2ccccc2)C=C1c1ccc(Br)cc1
56	COc1ccc(S(=O)(=O)N2CCOCC2)cc1NC(=O)CSc1ncnc2ccccc12
57	Cc1cc(/C=C2/C(=N)N3C(=NC2=O)SN=C3S(C)(=O)=O)c(C)n1-c1ccc(F)cc1
58	OCC[C@H]1C[C@@H](O)[C@H](O)[C@@]2(Cc3ccccc3CCO2)O1
59	CC(=O)Nc1ccccc1OCC(=O)NCC(F)(F)F
60	Cc1ccc(NC(=O)Cc2ccc(Cl)cc2)cc1S(=O)(=O)N1CCCCCC1
Assay by compound | 55 | 56 | 57 | 58 | 59 | 60
SARS PLP yeast | 28% | -7% | 2% | -21% | -1% | 3%[6.58 µM]
2A StopGo | 0% | -15% | 40%[activator] | -3% | -10% | ?
RE007 growth inh | -17% | 21% | 12% | 0% | 16% | 0%

61	O=C(OCc1nnc(-c2ccccc2Br)o1)c1ccco1
62	C=CC[C@H](CC(=O)N(CCO)Cc1ccccc1)C(=O)N[C@@H](C)COC(=O)[C@@H](CC=C)Cc1ccc(F)cc1
63	CCN(C[C@H]1N[C@@](CC)(C(=O)OC)[C@H]2C(=O)N(Cc3ccccc3)C(=O)[C@@H]12)S(=O)(=O)c1ccc(OC)cc1
64	Cc1ccc(S(=O)(=O)NCCC(=O)NCCc2ccc(S(N)(=O)=O)cc2)cc1C
65	COc1cccc(NC(=O)COC(=O)CCC(=O)c2cccs2)c1
66	CN(CC(=O)Nc1cccc(S(=O)(=O)NC2=NCCC2)c1)Cc1cccc(F)c1
Assay by compound | 61 | 62 | 63 | 64 | 65 | 66
SARS PLP yeast | 1% | -2% | 5% | -5% | -4% | -1%
2A StopGo | 14% | ? | -13% | 14% | -7% | 42%[activator]
RE007 growth inh | 2% | -7% | -12% | 1% | -11% | -16%

# Rewritten bar-delimited: entries from further up.
cpd | compound | SARS PLP yeast | 2A StopGo | RE007 growth inh
63 | CCN(C[C@H]1N[C@@](CC)(C(=O)OC)[C@H]2C(=O)N(Cc3ccccc3)C(=O)[C@@H]12)S(=O)(=O)c1ccc(OC)cc1 | 5% | -13% | -12%
64 | Cc1ccc(S(=O)(=O)NCCC(=O)NCCc2ccc(S(N)(=O)=O)cc2)cc1C | -5% | 14% | 1%
65 | COc1cccc(NC(=O)COC(=O)CCC(=O)c2cccs2)c1 | -4% | -7% | -11%
66 | CN(CC(=O)Nc1cccc(S(=O)(=O)NC2=NCCC2)c1)Cc1cccc(F)c1 | -1% | 42%[activator] | -16%

# Further records
67	N=c1c2c(n(Cc3ccc(F)cc3)c3c1CCC3)CCCC2
68	Cc1nn2c(=O)cc(COC(=O)c3c(F)cccc3Cl)nc2s1
69	Cc1ccc(NC(=O)CC2OC(=O)c3ccccc32)cc1S(=O)(=O)N1CCCCCC1 (stereo not drawn)
70	Cc1cc(C(=O)Nc2cccc3c2O[C@H](CN(C)CC2CC2)[C@@H](C)CN([C@H](C)CO)C3=O)n(C)n1
71	COc1ccccc1CNC(=O)COC(=O)c1cc(=O)[nH]c2ccccc12
72	CC1CCCCC1NC(=O)COC(=O)/C=C/c1ccco1 (stereo not drawn)
73	CC1=C(C(=O)c2ccccc2)C(c2cccc([N+](=O)[O-])c2)NC(=S)N1 (stereo not drawn)
74	C[C@H](CO)N1C[C@H](C)[C@@H](CN(C)C(=O)Nc2ccc(C(F)(F)F)cc2)Oc2ccc(NC(=O)Nc3ccc4c(c3)OCO4)cc2C1=O
75	CCOC(=O)N1CCN(C(=O)CNC(=O)c2ccc(Cl)cc2Cl)CC1
Assay by compound | 67 | 68 | 69 | 70 | 71 | 72 | 73 | 74 | 75
SARS PLP yeast | 5% | 9% | -2% | 4% | -6% | -2% | 1% | 1% | 10%
2A StopGo | ? | 62%[activator] | -28% | 8% | -13% | -11% | -23% | -17% | -13%
RE007 growth inh | -21% | -1% | 3% | 19% | 14% | -2% | -16% | -6% | 15%
